Screens (PubChem BioAssay)
Ecoli rRNA inh: selective bacterial rRNA inhibition in E. coli; E. coli WT GFP vs humanized-ribosome RFP mutants, fluorescence, 24 h; hits give low values; DMSO median 0, no signal -100; GFP signal change (wild-type ribosome), % (test concentration not listed); actives 1.6% (n = 350,000);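 active = significant combined selectivity score with lowered wild-type GFP, culture density cut under 30%, mutant RFP and density less affected; inactive = any of these conditions unmet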; note: one replicate is shown; some compounds called inactive have numbers as strong as hits
Calb FLC: C. albicans growth modulation with fluconazole; C. albicans CaCi-2 (fluconazole-resistant clinical isolate) + fluconazole, Alamar Blue growth, 48 h; growth inhibition, % (concentration not given with the values); actives 0.57% (n = 300,000); AID 1979;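 active = most replicates above 75%; inconclusive = exactly half above 75%; inactive = most below 75%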;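 note: all wells also contain fluconazole at 8 µg/ml as a sub-toxic cotreatment; 0% = median of DMSO wells and 100% = median of geldanamycin control wells; wells of about 8 µL received 7.5 nL stock; the first replicate is given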
Bfl-1 A1 inh: inhibitors of the anti-apoptotic protein A1, read as caspase activation. MEF A1-2A-BIM cells, Caspase-Glo 3/7 luminescence, 3 h; percent of clofoctol response, vehicle zero. caspase activation, % (concentration not given with the values). actives 0.066% (n = 330,000). AID 2462;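 active = over half of replicate activation scores above 10%, or exactly half above 10 with the replicate mean above 10; inconclusive = replicate mean below 10 yet half the replicates above 10; inactive = over half of replicates below 10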;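 note: wells of about 30 µL received 50 nL stock; many hits fall short of the cut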
Vif TR-FRET: inhibitors of Vif binding to APOBEC3G peptide, primary screen, biochemical, TR-FRET, GST-Vif 1-94, biotin-A3G peptide, dose response retest (AID 1117319); actives 0.57% (n = 260,000); TR-FRET GST-Vif / biotin-A3G peptide binding; higher % means a stronger effect; test concentration not given here; strong numbers were not always called active; inhibition, %; hits with a dose series show IC50 in µM;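 active = above the screen mean plus three standard deviations and confirmed in dose response; inconclusive = results disagree or hit not tested in dose response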;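 note: Vif residues 1-94 fused to GST binding biotinylated APOBEC3G peptide 110-148; 0% = full assay without inhibitor and 100% = GST in place of GST-Vif; retest series ran down from 100 µM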
T cruzi inh: blocks replication of Trypanosoma cruzi; T. cruzi beta-gal in NIH3T3, luminescence, 90 h; inhibition, % (no concentration beside the values); actives 1.4% (n = 300,000);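 active = mean inhibition across valid replicates above about 55%, limit read from the data; inconclusive = mean below that limit but half or more replicates reach it; inactive = mean below it, under half of replicates reach it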;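 note: signal also drops with host cell toxicity which is not excluded here; 0% = plate median of DMSO wells and 100% = zero luminescence signal; higher percent means less beta-gal luminescence so fewer parasites; stock transfer was 50 nL into about 50 µL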
RanGTP-Impb inh: disruptors of Ran-importin-beta complex formation – biochemical, FRET, CFP-Ran, YFP-importin-beta, homogeneous, primary screen. cell-free CFP-Ran/YFP-importin-beta FRET ratio. inhibition, % (test concentration not listed). actives 1.1% (n = 300,000). AID 2216;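 active = most replicates above 15%; inconclusive = exactly half above 15%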;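 note: 0% = DMSO wells and 100% = Ran loaded with GDP instead of GTP; wells of about 40 µL received 100 nL stock; the first replicate is given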
Beta cell apopt: beta cell apoptosis inhibition | INS-1E cytokine-induced death, ATP luminescence, 48 h; percent of positive-control rescue, neutral wells zero | protection from apoptosis, % (test concentration not listed) | actives 0.8% (n = 300,000);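 active = all replicates at 75% or more, or half of them and the mean; inconclusive = half reach 75% but not the mean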;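 note: 0% = cytokine-treated negative control wells and 100% = positive control rescue; higher means more ATP so stronger rescue from cytokine killing; wells of about 40 µL received 100 nL stock; the first replicate is given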
MLL AF4-AF9 inh: MLL-AF4/AF9 protein interaction inhibition; AID 651704; AlphaScreen, biotin-AF4 peptide binding to FLAG-AF9; inhibition, % at 10 µM; actives 0.47% (n = 350,000);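 active = every replicate reaching a set inhibition limit, whatever the replicate mean, cut at about 25% in these data; inconclusive = mean inhibition reaches that limit but some replicates miss it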;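 note: 0% = plate neutral control median and 100% = total signal loss; the record names both 10 and 1 µM as test concentration; the first replicate is given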
Target sequence (P42568 whole entry, looked up): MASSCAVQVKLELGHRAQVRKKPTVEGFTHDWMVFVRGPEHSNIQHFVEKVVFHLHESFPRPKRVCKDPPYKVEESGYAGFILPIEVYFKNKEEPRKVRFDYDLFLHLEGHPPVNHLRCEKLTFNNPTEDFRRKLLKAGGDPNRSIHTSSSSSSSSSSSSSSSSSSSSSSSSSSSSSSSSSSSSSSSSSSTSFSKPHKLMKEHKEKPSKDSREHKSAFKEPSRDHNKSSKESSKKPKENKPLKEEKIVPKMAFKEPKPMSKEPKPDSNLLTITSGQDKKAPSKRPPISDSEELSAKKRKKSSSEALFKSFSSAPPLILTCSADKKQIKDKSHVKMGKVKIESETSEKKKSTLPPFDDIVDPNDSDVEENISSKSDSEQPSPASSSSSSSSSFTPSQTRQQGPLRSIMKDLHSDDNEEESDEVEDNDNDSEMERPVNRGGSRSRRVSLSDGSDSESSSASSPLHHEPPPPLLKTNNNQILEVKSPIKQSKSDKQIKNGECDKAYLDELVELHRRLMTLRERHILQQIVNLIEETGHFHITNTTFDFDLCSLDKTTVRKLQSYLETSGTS
Ecoli rRNA inh OD600: further read-out of Ecoli rRNA inh, marked with its call; OD600 change, %; measured here: OD600 growth;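 optical density of the mix in the first replicate; 0 = DMSO median and -100 = no signal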
Ecoli rRNA inh RFP: second read-out of Ecoli rRNA inh, no call of its own (marks repeat the call); RFP signal change, %; measured here: RFP humanized mutant strains;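 first replicate; 0 = DMSO median and -100 = no signal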
Numbers without * were called inactive; ? = inconclusive; / = not tested or not shown. A portion of the library; count on the stated rates, not on these rows.

SMILES | Ecoli rRNA inh | Ecoli rRNA inh OD600 | Ecoli rRNA inh RFP | Calb FLC | Bfl-1 A1 inh | Vif TR-FRET | T cruzi inh | RanGTP-Impb inh | Beta cell apopt | MLL AF4-AF9 inh
COc1ccccc1C(=O)NC(=O)COc1ccc(Cl)cc1Cl | 4.0 | 0.9 | -1.0 | 2.0 | 0.1 | -19.0% | -6.9 | 0.5 | -2.8 | 3.3
C=CCn1c(C)cc(C(=O)COc2ccc(N(C)S(=O)(=O)c3ccc(NC(C)=O)cc3)cc2)c1C | -8.0 | -11.1 | 2.9 | / | 1.0 | / | / | / | 31.1 | 5.1
CCSc1nnc(-c2cc(Br)ccc2N)c(=O)[nH]1 | -2.8 | -1.0 | -0.6 | 5.4 | -0.6 | 15.6% | 2.7 | -3.6 | 2.5 | -2.4
COc1ccc2c(c1)CC/C(=C\C=C\c1ccccc1OC)C2=O | / | / | / | 1.0 | -0.5 | ? | 10.0 | 2.1 | 3.1 | /
COc1cc(OC)cc(C(=O)N[C@H](C(=O)Nc2cc(C)cc(C)c2)C(C)C)c1 | 5.3 | 5.1 | 4.3 | 18.5 | -0.4 | -1.6% | / | / | -3.5 | 1.4
c1ccc(NCc2ccccn2)cc1 | 19.1 | 13.6 | 2.6 | -23.7 | 0.7 | -5.0% | -11.1 | 4.9 | 0.8 | -0.2
CSc1nc2nc3c(cc2c(=O)n1-c1ccccc1C)COC(C)(C)C3 | -1.1 | -4.5 | -6.9 | -2.1 | -0.8 | -5.7% | 6.8 | 4.3 | -0.4 | ?
COc1cc(C(=O)Nc2ccc3nc4n(c(=O)c3c2)CCCC4)ccc1Br | -4.6 | -16.9 | 0.3 | 1.5 | -0.4 | -2.9% | 5.0 | 2.8 | 14.2 | -0.2
CCCN(CCC)CCNS(=O)(=O)c1ccc2c(c1)CCN2C(=O)C1CCC1 | / | / | / | -4.4 | -0.2 | ? | 8.7 | -4.2 | -2.9 | /
CC(=O)N1CC(C)Sc2ccc(S(=O)(=O)NCCc3ccccc3)cc21 (stereo unspecified) | -25.4* | -18.4* | 0.6* | -22.3 | -0.5 | 8.3% | -4.0 | -2.8 | 9.8 | -2.0
CC(C)[C@H](NC(=O)Nc1ccccc1F)C(=O)O | / | / | / | -3.3 | 0.0 | -1.7% | -12.7 | ? | -0.6 | /
CC(C)C(NS(=O)(=O)c1cccs1)C(=O)N1CCC(C(N)=O)CC1 (stereo unspecified) | -2.4 | 7.8 | -2.6 | / | 1.5 | -5.6% | / | / | -0.1 | -1.1
CC(Sc1ccccc1)C(=O)Nc1ccc(S(=O)(=O)N2CCOCC2)cc1 (stereo unspecified) | / | / | / | -2.6 | -0.3 | -0.7% | 4.8 | 4.9 | -6.9 | /
COc1ccccc1C(=O)NNC(=O)C12CC3CC(CC(C3)C1)C2 | -1.3 | 3.0 | 5.8 | 1.6 | -0.3 | / | -6.1 | ? | -4.7 | -0.1
O=[N+]([O-])c1ccccc1/C=C/CN1CCCCC1CO (stereo unspecified) | 7.4 | 14.2 | 1.0 | -7.0 | -1.5 | / | -8.9 | -2.7 | 5.8 | -0.8
COc1ccc(C(=O)Nc2c(-c3ccccc3)nc3ccccn23)c(OC)c1 | -6.4 | -6.8 | -3.4 | 12.4 | -0.7 | -1.8% | -5.1 | 2.2 | 5.6 | 2.9
N#C/C(=C\c1ccc(O)c([N+](=O)[O-])c1)c1nc2ccccc2s1 | -32.5 | -54.5 | -4.7 | ? | / | 6.6% | -9.4 | 0.7 | / | 7.1
O=C(Cc1c(F)cccc1Cl)NNC(=O)c1ccccc1Cl | 7.1 | 8.9 | 1.7 | / | -0.4 | 98.4% | / | / | -3.7 | -6.7
CCn1cc(C(=O)N[C@@H](CCSC)C(=O)NCCOC)c(=O)c2cc3c(cc21)OCO3 | 5.7 | -1.1 | 3.6 | 2.8 | -0.1 | 0.1% | -22.5 | 1.5 | -6.0 | 1.9
COC(=O)c1ccccc1NC(=O)C1(S(=O)(=O)c2ccc(Cl)cc2)CC1 | -13.1 | -10.9 | 3.7 | -0.6 | -0.2 | / | 6.4 | -1.1 | -2.6 | 2.5
CC(C)CN(C(=O)CN(C)C(=O)c1ccco1)c1c(N)n(CC(C)C)c(=O)[nH]c1=O | 7.6 | 2.8 | -1.1 | -7.5 | 0.8 | 1.0% | -4.1 | 2.2 | -6.2 | -5.1
C=CC[C@H](CC(=O)NCCO)C(=O)N[C@H](C)COC(=O)[C@@H](CC=C)Cc1ccc(F)cc1 | -2.4 | -10.9 | 5.2 | / | -0.7 | / | / | / | 0.2 | 0.4
Cc1ccc(S(=O)(=O)c2cc(Nc3ccccc3)ccc2O)cc1 | 0.8 | -2.9 | 9.5 | 51.3 | 0.5 | / | -13.9 | -0.8 | 3.0 | 4.5
CN(c1ccc(C(=O)Nc2cccnc2)cc1)S(=O)(=O)c1ccccc1 | -2.3 | 4.5 | 0.9 | -1.3 | 0.5 | / | 7.5 | -0.1 | 0.4 | 0.6
CCN(CC)CCC(c1ccc(N(C)C)cc1)c1c(O)cc(OC)cc1OC (stereo unspecified) | / | / | / | -2.3 | 0.2 | / | -2.6 | 4.1 | -2.4 | /
Cc1cc(-c2[nH]nc3c2C(c2cccc(O)c2)C(C#N)=C(N)O3)c(C)s1 (stereo unspecified) | / | / | / | 19.8 | -0.4 | >100µM* | -15.7 | 3.4 | -3.7 | /
Cc1sc2ncnc(N(C)C3CCCCC3)c2c1C | -10.9 | -34.0 | -9.4 | 16.5 | -0.1 | / | 14.6 | 8.1 | 1.4 | -10.1
COc1ccc(S(=O)(=O)N2CCC(C(=O)N3CCOCC3)CC2)cc1 | / | / | / | -11.9 | -0.6 | ? | -20.0 | 1.2 | -6.5 | /
CN(C)c1ccc(NC(=O)CN2CCC(N3CCCCC3)CC2)cc1 | / | / | / | -11.3 | 1.3 | -1.4% | -6.8 | -0.7 | 0.5 | /
CCOc1cc(CN2CCCC(CNC(=O)c3ccc(F)cc3)C2)ccc1OC (stereo unspecified) | 7.3 | 3.2 | -1.2 | -4.7 | 0.1 | 13.8% | 60.6* | -1.9 | -6.8 | 8.8
CCOc1cc(C(=O)NCC(=O)N2CCC3(CC2)NCCc2[nH]cnc23)cc(OCC)c1OCC | -3.3 | 5.2 | -2.4 | -2.8 | 0.0 | / | -9.6 | 0.8 | -4.5 | 1.9
CSc1ccccc1C(=O)N1CCOCC1 | / | / | / | -2.5 | 0.5 | 16.0% | -1.1 | 2.1 | -2.2 | /
O=C(Nc1ccc(O)c2c(=O)cc(-c3ccccc3Cl)oc12)c1ccc(Cl)c(Cl)c1 | 6.1 | 4.4 | -1.8 | 1.6 | -0.3 | / | -8.4 | ? | -2.0 | /
COc1ccc(OC)c(-c2csc(N(CC3CCCO3)C(=O)Cc3ccccc3)n2)c1 (stereo unspecified) | 13.2 | 8.5 | 2.9 | -2.7 | 2.6 | -6.8% | 40.2 | / | 8.7 | -2.2
Cc1ccc(CSC2=NCCN2C(=O)C(C)Oc2ccccc2)cc1 (stereo unspecified) | 11.5 | 12.5 | -8.1 | 0.3 | 1.2 | -4.1% | 2.1 | -0.3 | 1.8 | -1.3
CC(C)CC(=O)NCc1ccc(F)cc1 | / | / | / | 0.5 | 1.5 | -4.5% | -4.1 | 14.9 | / | /
COc1ccc(-c2ccc3c(c2)S(=O)(=O)c2cccc(C(=O)O)c2C3=O)cc1OC | 4.0 | 3.5 | 23.7 | / | -0.1 | / | / | / | -3.9 | -3.3
C[C@]12c3[nH]c4ccccc4c3CCN1C(=O)C(CC(=O)NCCc1ccccn1)C[C@@H]2C(=O)N1CCCCC1 (stereo partly specified) | -11.6 | -14.1 | 0.1 | / | 1.6 | 32.5% | / | / | -8.9 | -1.3
Cc1cc(C)c(NC(=O)C(C)c2cccc(C(=O)c3ccccc3)c2)c(C)c1 (stereo unspecified) | -17.3* | 4.2* | 3.9* | -15.7 | 0.3 | 2.0% | 2.6 | 1.5 | -1.8 | 9.6
Cn1cccc1Cc1nnc(SCC(=O)Nc2cccc(Cl)c2)n1-c1ccc(F)cc1 | -8.4 | -22.4 | 1.5 | 2.9 | -0.5 | 32.9% | -10.3 | -2.7 | -3.6 | 9.7
COc1ccccc1NC(=O)Cn1cc(C(=O)C2CC2)c2ccccc21 | 6.6 | 26.2 | 0.6 | 2.5 | 0.9 | -4.8% | 3.3 | -3.0 | -10.4 | -0.2
Cn1c2ccccc2c(=O)c2c(=O)n(C3CCCCC3)c(-c3ccco3)nc21 | / | / | / | -4.1 | 0.4 | / | 5.9 | 2.1 | / | /
CC(C)c1ccc(C(=O)NC(=S)Nc2ccc3[nH]c(=O)[nH]c3c2)cc1 | 1.7 | -0.9 | 2.0 | 18.0 | 0.2 | / | 5.3 | 2.3 | 1.1 | -6.1
Cc1cc(C)n(C2CCCCC2OC(=O)c2ccccc2F)n1 (stereo unspecified) | / | / | / | 4.6 | 0.3 | -4.5% | -9.7 | -3.0 | 6.2 | /
COc1cc(C2C3C(=O)N(Cc4ccccc4)C(=O)C3ON2c2ccccc2)cc(OC)c1OC (stereo unspecified) | / | / | / | 8.8 | / | 5.0% | -0.6 | 1.9 | / | /
COc1ccc(C)cc1NC(=O)c1ccc(NS(=O)(=O)c2cccc3cccnc23)cc1 | -2.8 | 2.4 | -3.1 | -3.0 | -0.2 | / | -8.9 | -5.5 | -5.4 | -1.7
Cc1ccc(N(CC(=O)NCc2ccccc2Cl)S(=O)(=O)c2cccs2)cc1 | / | / | / | 0.3 | -0.1 | 18.9% | 27.4 | 2.6 | 5.5 | /
CCN(CC)S(=O)(=O)c1ccc(C(=O)Nn2cnnc2)cc1 | 15.9 | 12.9 | -0.9 | 2.7 | -0.4 | 4.6% | -5.4 | -1.8 | -5.0 | -1.3
Cc1ccc(C(=O)NCc2ccco2)o1 | 7.7 | 10.8 | 0.0 | / | -0.8 | / | -6.1 | / | -4.3 | -2.1
CCNC(=S)NCc1ccc(Cl)cc1 | 3.0 | 4.0 | -9.2 | -2.6 | 0.2 | / | -5.0 | -3.6 | -3.9 | /
